High-throughput results from PubChem.
rRNA inh HTS – inhibitors of bacterial rRNA selective over humanized ribosomes; 350,000 compounds, 1.6% hits; GFP signal change (wild-type ribosome), % (test concentration not listed); AID 720706; E. coli WT GFP vs humanized-ribosome RFP mutants, fluorescence, 24 h; active compounds read low; DMSO median 0, no signal -100;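 active = significant combined selectivity score with lowered wild-type GFP, culture density cut under 30%, mutant RFP and density less affected; inactive = any of these conditions unmet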; also: one replicate is shown; some compounds called inactive have numbers as strong as hits
FGF22 binding – shifts melting point of recombinant human FGF22; Q9HCT0; recombinant FGF22 thermal shift, SYPRO orange fluorescence; percent of sucrose octasulfate shift, DMSO zero; calls only at 9.99 µM; 340,000 compounds, 1.5% hits;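 active = melting point raised past a set limit in the mean and every replicate; three in four hits are not shown here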
Target sequence (Q9HCT0 whole entry, looked up): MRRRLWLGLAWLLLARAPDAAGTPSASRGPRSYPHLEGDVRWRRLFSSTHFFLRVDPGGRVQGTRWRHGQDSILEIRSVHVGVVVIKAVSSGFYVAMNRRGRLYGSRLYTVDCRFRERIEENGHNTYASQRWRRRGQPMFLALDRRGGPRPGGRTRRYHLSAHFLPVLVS
AF4-AF9 inh – MLL-AF4/AF9 protein interaction inhibition. P42568. AlphaScreen, biotin-AF4 peptide binding to FLAG-AF9. inhibition, % at 10 µM. 350,000 compounds, 0.47% hits. AID 651704;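 active = every replicate reaching a set inhibition limit, whatever the replicate mean, cut at about 25% in these data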;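 also: 0% = plate neutral control median and 100% = total signal loss; the record names both 10 and 1 µM as test concentration; the first replicate is given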
Target sequence (P42568 whole entry, looked up): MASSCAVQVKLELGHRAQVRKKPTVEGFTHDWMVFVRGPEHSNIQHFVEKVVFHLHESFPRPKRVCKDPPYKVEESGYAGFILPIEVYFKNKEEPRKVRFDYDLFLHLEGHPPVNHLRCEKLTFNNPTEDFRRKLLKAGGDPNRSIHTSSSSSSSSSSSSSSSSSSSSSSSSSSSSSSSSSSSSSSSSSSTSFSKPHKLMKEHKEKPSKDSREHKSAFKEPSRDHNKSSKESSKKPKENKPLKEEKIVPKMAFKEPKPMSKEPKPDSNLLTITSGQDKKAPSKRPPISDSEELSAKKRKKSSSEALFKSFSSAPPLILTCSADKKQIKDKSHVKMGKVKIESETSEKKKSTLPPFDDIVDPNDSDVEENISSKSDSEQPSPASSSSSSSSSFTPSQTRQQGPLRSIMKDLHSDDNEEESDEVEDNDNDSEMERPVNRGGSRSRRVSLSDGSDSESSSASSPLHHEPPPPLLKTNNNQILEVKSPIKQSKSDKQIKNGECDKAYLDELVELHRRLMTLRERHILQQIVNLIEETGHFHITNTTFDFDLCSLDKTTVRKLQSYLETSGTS
rRNA inh HTS OD600 – also measured in rRNA inh HTS; calls as there; OD600 change, %; measured here: OD600 growth;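 optical density of the mix in the first replicate; 0 = DMSO median and -100 = no signal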
rRNA inh HTS RFP – also measured in rRNA inh HTS; calls as there; RFP signal change, %; measured here: RFP humanized mutant strains;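 first replicate; 0 = DMSO median and -100 = no signal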
Numbers without * were called inactive; i = inactive.

Each structure is followed by: rRNA inh HTS | rRNA inh HTS OD600 | rRNA inh HTS RFP | FGF22 binding | AF4-AF9 inh
1) CN1CCCC(C)(C(=O)Nc2cccc(Oc3ccccc3)c2)C1 (stereo not given)
→ 2.2 | 4.9 | -3.1 | i | 0.3
2) CCNC(=O)C[C@@H]1CC[C@H]2[C@@H](COC[C@H](O)CN2C(=O)C2CCOCC2)O1
→ 5.2 | 14.9 | 19.1 | i | -3.0
3) COc1cccc(CN2CC3(CN(C(=O)Nc4c(C)noc4C)C3)c3c([nH]c4cc(OC)ccc34)[C@H]2CO)c1
→ -2.9 | 6.6 | 3.5 | i | -2.2
4) O=C(C[C@@H]1C=C[C@H](NC(=O)CC2CC2)[C@H](CO)O1)NCc1ccc(Cl)cc1
→ 2.4 | 0.2 | 1.1 | i | -8.7
5) COCC#Cc1ccc2c(c1)O[C@H](CN(C)Cc1ccc(F)cc1)[C@H](C)CN([C@@H](C)CO)S2(=O)=O
→ -2.3 | 2.6 | -3.6 | i | 4.9
6) O=C(Nc1ccccc1)N1CCCCN2[C@H](CO)[C@H](c3ccc(C#CC4CC4)cc3)[C@@H]2C1
→ -4.6 | -36.0 | 13.3 | i | 2.2
7) C[C@H](CO)N1C[C@H](C)[C@@H](CN(C)Cc2ccc(C(=O)O)cc2)Oc2c(NS(=O)(=O)c3ccc(Cl)cc3)cccc2C1=O
→ -1.4 | 6.5 | -3.2 | i | 1.0
8) CS(=O)(=O)Nc1ccc2c(c1)[C@@H]1C[C@H](CC(=O)NCc3cc(F)ccc3F)O[C@H](CO)[C@@H]1O2
→ 0.2 | 3.1 | 0.1 | i | -0.3
9) OC1CNc2c(ccc3ccccc23)C1 (stereo not given)
→ 0.4 | 0.2 | 19.4 | i | 3.8
10) C[C@@H]1CN([C@H](C)CO)C(=O)c2cccc(NC(=O)CCCCCC(=O)Nc3ccccc3N)c2O[C@H]1CN(C)Cc1ccc2c(c1)OCO2
→ -9.5 | -15.9 | 0.7 | i | -1.7
11) Nc1nc(NC2CCCC2)cc(=O)[nH]1
→ 16.6 | 1.0 | 1.5 | i | 5.3
12) C[C@@H]1CN([C@@H](C)CO)C(=O)Cc2cc(NC(=O)C3CC3)ccc2O[C@@H]1CN(C)CC1CC1
→ 4.5 | 2.4 | 2.0 | i | -1.6
13) C[C@H](CO)N1C[C@H](C)[C@H](CN(C)C)Oc2cc(/C=C/c3ccccc3)ccc2S1(=O)=O
→ 3.1 | -2.4 | 5.8 | i | 3.7
14) C[C@@H]1CN([C@H](C)CO)C(=O)Cc2cc(NC(=O)NC3CCCCC3)ccc2O[C@H]1CN(C)C
→ 6.4 | 1.4 | -1.4 | i | 0.6
15) O=C(NCC[C@H]1CC[C@H](NC(=O)c2cccnc2)[C@@H](CO)O1)Nc1ccc(F)cc1
→ -1.0 | 8.8 | -0.5 | i | 12.4
16) C[C@@H]1CN([C@@H](C)CO)C(=O)c2cc(NC(=O)c3ccncc3)ccc2O[C@H]1CN(C)S(=O)(=O)c1ccc(F)cc1
→ -0.3 | 3.7 | 1.1 | i | -0.9
17) Cc1ccc(Cc2c(-c3ccc(F)cc3)nc3ccc(Br)cn23)cc1
→ -11.3 | -14.1 | 2.2 | i | 4.1
18) CN1C(=O)c2cc(NC(=O)c3cscn3)ccc2OC[C@@H]2O[C@H](CC(=O)N3CCCCC3)CC[C@@H]21
→ -2.3 | 1.9 | -3.3 | i | -1.4
19) CC(C)NC(=O)Nc1ccc2c(c1)C(=O)N([C@H](C)CO)C[C@H](C)[C@H](CN(C)Cc1ccc(C(=O)O)cc1)OCCCC[C@@H](C)O2
→ 2.8 | 6.4 | -3.2 | i | 2.9
20) O=S1(=O)CC(N2CCN(Cc3ccccc3F)CC2)CN1Cc1cn(Cc2ccc(F)cc2)nn1 (stereo not given)
→ -1.3 | 0.1 | 0.7 | i | -1.0
21) CO[C@@H]1CN(C)C(=O)c2ccc(NC(=O)C3CC3)cc2OC[C@@H](C)N(C)C[C@@H]1C
→ 0.0 | 2.9 | -1.1 | i | -28.7
22) O=C(Nc1ccc(Cl)c(Cl)c1)N[C@H]1CC[C@@H](CCn2cc(C3CCCCC3)nn2)O[C@@H]1CO
→ -44.5* | -30.4* | -11.3* | i | 3.7
23) COc1cc2c(cc1CNC[C@H]1O[C@@H](n3cc(C)c(=O)[nH]c3=O)C[C@@H]1O)OCO2
→ 1.8 | 1.0 | -4.4 | i | -2.5
24) Cc1ccc(-c2ccc3c(c2)O[C@H](CN(C)Cc2cccc(C(=O)O)c2)[C@H](C)CN([C@H](C)CO)S3(=O)=O)cc1
→ -4.4 | -11.0 | -3.7 | i | 6.7
25) O=C1NC(=S)SC1=Cc1ccccc1Br
→ -60.8 | -80.1 | -15.6 | i | -0.7
26) O=C(C[C@@H]1CC[C@H](NC(=O)c2ccccc2)[C@H](CO)O1)NCc1ccc(Oc2ccccc2)cc1
→ -5.2 | -17.4 | 1.5 | i | -0.3
27) C[C@H](CO)N1C[C@H](C)[C@@H](CN(C)C(=O)Cc2ccccn2)Oc2cc(-c3ccc(C(=O)N(C)C)cc3)ccc2S1(=O)=O
→ 0.1 | 3.4 | 2.1 | i | -4.7
28) C/C=C/c1cnc2c(c1)C(=O)N([C@H](C)CO)C[C@@H](C)[C@H](CN(C)C(=O)c1cccnc1)O2
→ 4.3 | 3.9 | -4.7 | i | -2.3
29) CCCNC(=O)N1CC2(C1)[C@H](c1ccccc1)[C@@H](CO)N2Cc1ccccn1
→ 1.8 | 4.2 | -0.4 | i | -1.1
30) Cc1csc(SCC(=O)N(c2ccccc2)C(C)C)n1
→ 1.9 | -13.6 | 2.9 | i | 0.9

Values by screen from the entries so far:
FGF22 binding, compounds 21 to 29 → i, i, i, i, i, i, i, i, i

Next structures
Each structure is followed by: rRNA inh HTS | rRNA inh HTS OD600 | rRNA inh HTS RFP | FGF22 binding | AF4-AF9 inh
31) COc1cccc(OC)c1C(=O)OCC(=O)NCC1CCCCC1
→ -4.0 | -12.5 | -0.1 | i | -2.0
32) COc1ccc(S(=O)(=O)N(C)C[C@@H]2Oc3c(NC(=O)NC(C)C)cccc3C(=O)N([C@H](C)CO)C[C@H]2C)cc1
→ -3.2 | 1.3 | -1.2 | i | -3.6
33) O=C(C[C@H]1C=C[C@H](NC(=O)Nc2cccc(F)c2)[C@@H](CO)O1)NCC1CC1
→ 1.2 | 3.1 | 2.9 | i | -1.2
34) Cc1cc2nc(C3CCCCC3)c(CC(C)(C)C)n2c(C)c1Br
→ -2.3 | -4.6 | -9.0 | i | -1.4
35) O=C(Nc1cccc(C(=O)N2CCOCC2)c1)C1CC1
→ 11.6 | 1.8 | 0.5 | i | 1.9
36) Cc1cc(C)cc(Cn2c3ccc(NC(=O)NCc4ccccc4)cc3c(=O)n2C)c1
→ 4.7 | -0.5 | -1.9 | i | -1.5
37) O=C(c1ccc2c(c1)OCO2)N1C[C@H]2[C@@H](c3ccccc31)[C@@H](CO)N2Cc1ccccc1Cl
→ -27.1 | -49.5 | 18.2 | i | 1.5
38) C[C@H](CO)N1C[C@H](C)[C@H](CN(C)C(=O)c2ccncc2)OCc2ccccc2-c2ccccc2C1=O
→ 3.0 | 7.6 | -4.3 | i | -3.0
39) C[C@H](CO)N1C[C@H](C)[C@H](CN(C)C(=O)NC2CCCC2)Oc2ncc(-c3cc4ccccc4o3)cc2C1=O
→ -5.7 | -35.9 | 11.8 | i | 2.1
40) COCCNC(=O)C[C@H]1C[C@H]2c3cc(NC(=O)Cc4ccncc4)ccc3O[C@H]2[C@H](CO)O1
→ -0.4 | 0.0 | 0.3 | i | -9.9
41) CN1[C@@H]2c3ccc(-c4ccncc4)c(=O)n3C[C@@H]2[C@@H](CO)[C@@H]1C(=O)NC1Cc2ccccc2C1
→ -2.5 | -4.3 | -1.1 | i | 1.5
42) C[C@H](CO)N1C[C@H](C)[C@H](CN(C)Cc2ccc(Oc3ccccc3)cc2)Oc2ccc(NC(=O)Cc3ccccc3)cc2C1=O
→ -4.6 | -31.4 | 34.8 | i | 1.8
43) CN1CCN(C(=O)C[C@@H]2CC[C@@H]3[C@H](COC[C@H](O)CN3C(=O)C3CCCC3)O2)CC1
→ -1.1 | 1.7 | -2.5 | i | -1.1
44) C[C@H](CO)N1C[C@H](C)[C@H](CN(C)C(=O)NC2CCCCC2)Oc2ccc(N(C)C)cc2CC1=O
→ 3.1 | 5.5 | 0.8 | i | -0.3
45) C[C@@H]1CN([C@@H](C)CO)S(=O)(=O)c2ccc(-c3ccc(C#N)cc3)cc2O[C@H]1CN(C)C(=O)C1CC1
→ -5.9 | -1.7 | -2.4 | i | -11.5
46) Cc1ccc(S(=O)(=O)Nc2ccc3c(c2)CC(=O)N([C@@H](C)CO)C[C@@H](C)[C@H](CN(C)C(=O)NC2CCCCC2)O3)cc1
→ 1.5 | 1.3 | 0.9 | i | -1.1
47) C[C@@H]1CCCCO[C@@H](CN(C)CC2CCCCC2)[C@H](C)CN([C@@H](C)CO)C(=O)c2cc(NS(=O)(=O)c3ccccc3)ccc2O1
→ 3.2 | 9.1 | 5.6 | i | 5.8
48) CO[C@H]1CN(C)C(=O)c2ccc(NC(C)=O)cc2OC[C@H](C)N(C(=O)Cc2ccccn2)C[C@H]1C
→ 2.5 | 4.4 | -1.3 | i | 5.2
49) COc1ccc(C#Cc2ccc([C@H]3[C@H](CO)N4C(=O)CN(C(=O)NC(C)C)C[C@@H]34)cc2)cc1
→ 4.3 | 0.9 | 2.6 | i | -5.1
50) C[C@@H]1CN([C@H](C)CO)C(=O)c2cc(/C=C/c3ccccc3)cnc2O[C@H]1CN(C)C(=O)C1CCOCC1
→ -3.7 | 3.9 | -7.1 | i | -5.6
51) CC1=C(C(=O)N(C(C)C)C(C)C)CC(CC(=O)NC2CC2)C(=O)N1Cc1ccccc1 (stereo not given)
→ 11.4 | 10.7 | -0.8 | i | -0.6
52) CC(C)N(C(=O)[C@H]1C[C@H](CC(=O)NCCN2CCOCC2)C(=O)N2CCc3c([nH]c4cc(CCC(=O)N(C)C)ccc34)[C@]12C)C(C)C
→ 4.1 | 6.1 | -3.7 | i | -5.7
53) C[C@@H]1CN([C@H](C)CO)C(=O)CCCn2cc(nn2)CO[C@@H]1CN(C)Cc1ccc(C(=O)Nc2ccccc2N)cc1
→ 5.0 | 4.1 | 0.6 | i | -5.3
54) CCCCN1CC(CO)Oc2cccc(F)c2S1(=O)=O (stereo not given)
→ 2.0 | 5.2 | -3.0 | i | -4.7
55) C[C@@H]1CN([C@@H](C)CO)C(=O)Cc2cc(NC(=O)Cc3cn(C)c4ccccc34)ccc2O[C@@H]1CN(C)Cc1ccncc1
→ 1.2 | -3.6 | 15.1 | i | 5.3
56) COc1cccc(NC(=O)N[C@@H]2CC[C@H](CC(=O)NCc3ccncn3)O[C@H]2CO)c1
→ 4.1 | 6.7 | -1.1 | i | 1.8
57) COc1ccc(CNC(=O)c2cn(Cc3ccccc3F)c(=O)s2)cc1
→ 1.8 | 5.8 | -4.9 | i | -2.5
58) C[C@@H]1CN([C@@H](C)CO)C(=O)Cc2cc(NS(=O)(=O)c3cn(C)cn3)ccc2O[C@@H]1CN(C)S(=O)(=O)c1ccccc1
→ 1.2 | 0.8 | 0.4 | i | 2.3
59) O=C(C[C@@H]1C=C[C@H](NC(=O)C2CCOCC2)[C@@H](CO)O1)NCC1CCCCC1
→ 2.5 | 1.4 | -1.3 | i | -1.2
60) O=P(Nc1ccccc1)(Nc1ccccc1)c1ccccc1
→ 1.1 | 1.7 | 5.2 | i | 9.1
61) O=C(c1cccc(F)c1)N1CC(=O)N2[C@@H](CO)[C@H](c3ccc(C4=CCCCC4)cc3)[C@@H]2C1
→ 0.2 | -4.2 | 1.3 | i | -0.1
62) O=C(C[C@H]1C[C@@H]2c3cc(NC(=O)c4ccc5c(c4)OCO5)ccc3O[C@@H]2[C@H](CO)O1)NCCN1CCCCC1
→ 2.1 | -2.6 | -0.2 | i | 5.5
63) O=C(Nc1ncccc1O)c1ccc(NS(=O)(=O)c2ccc3[nH]c(=O)[nH]c3c2)cc1
→ 8.2 | 5.7 | -4.2 | i | -1.9
64) O=C(C[C@H]1CC[C@H]2[C@@H](COC[C@H](O)CN2C(=O)Nc2ccc(Cl)c(Cl)c2)O1)NCc1ccc(Cl)cc1
→ -61.4 | -77.8 | -25.4 | i | -2.8

Another view of 5 compounds above:
cpd	smiles	rRNA inh HTS	rRNA inh HTS OD600	rRNA inh HTS RFP	FGF22 binding	AF4-AF9 inh
26	O=C(C[C@@H]1CC[C@H](NC(=O)c2ccccc2)[C@H](CO)O1)NCc1ccc(Oc2ccccc2)cc1	-5.2	-17.4	1.5	i	-0.3
27	C[C@H](CO)N1C[C@H](C)[C@@H](CN(C)C(=O)Cc2ccccn2)Oc2cc(-c3ccc(C(=O)N(C)C)cc3)ccc2S1(=O)=O	0.1	3.4	2.1	i	-4.7
28	C/C=C/c1cnc2c(c1)C(=O)N([C@H](C)CO)C[C@@H](C)[C@H](CN(C)C(=O)c1cccnc1)O2	4.3	3.9	-4.7	i	-2.3
29	CCCNC(=O)N1CC2(C1)[C@H](c1ccccc1)[C@@H](CO)N2Cc1ccccn1	1.8	4.2	-0.4	i	-1.1
30	Cc1csc(SCC(=O)N(c2ccccc2)C(C)C)n1	1.9	-13.6	2.9	i	0.9

This is a subset; count on the stated rates, not on these rows.
